AF4-AF9 inh: blocks AF4 peptide binding to human AF9; AlphaScreen, biotin-AF4 peptide binding to FLAG-AF9; 350,000 tested, 0.47% active; inhibition, % at 10 µM; P42568;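 active = every replicate reaching a set inhibition limit, whatever the replicate mean, cut at about 25% in these data; inconclusive = mean inhibition reaches that limit but some replicates miss it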;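 note: 0% = plate neutral control median and 100% = total signal loss; the record names both 10 and 1 µM as test concentration; the first replicate is given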
Target sequence (P42568 whole entry, looked up): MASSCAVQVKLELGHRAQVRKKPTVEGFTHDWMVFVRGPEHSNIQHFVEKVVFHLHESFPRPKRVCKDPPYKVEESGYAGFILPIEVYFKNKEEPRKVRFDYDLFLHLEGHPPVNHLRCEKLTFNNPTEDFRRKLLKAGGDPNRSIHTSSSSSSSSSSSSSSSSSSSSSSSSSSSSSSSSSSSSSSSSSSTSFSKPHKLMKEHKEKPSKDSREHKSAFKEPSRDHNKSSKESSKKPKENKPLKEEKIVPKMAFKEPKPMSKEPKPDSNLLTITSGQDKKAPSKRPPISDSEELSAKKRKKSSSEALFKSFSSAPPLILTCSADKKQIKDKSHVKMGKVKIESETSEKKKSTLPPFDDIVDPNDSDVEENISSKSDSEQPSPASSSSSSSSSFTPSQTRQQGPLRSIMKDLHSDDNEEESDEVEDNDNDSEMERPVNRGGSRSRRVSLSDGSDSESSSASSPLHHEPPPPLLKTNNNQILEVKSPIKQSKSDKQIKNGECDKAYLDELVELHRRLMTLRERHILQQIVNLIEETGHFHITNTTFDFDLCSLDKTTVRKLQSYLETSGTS
Bfl-1 A1 inh: inhibitors of the anti-apoptotic protein A1, read as caspase activation; MEF A1-2A-BIM cells, Caspase-Glo 3/7 luminescence, 3 h; percent of clofoctol response, vehicle zero; caspase activation, % (concentration not given with the values); 330,000 tested, 0.066% active; AID 2462;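 active = over half of replicate activation scores above 10%, or exactly half above 10 with the replicate mean above 10; inconclusive = replicate mean below 10 yet half the replicates above 10; inactive = over half of replicates below 10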;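 note: wells of about 30 µL received 50 nL stock; many hits fall short of the cut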
Ecoli growth: E. coli growth inhibition | 330,000 tested, 0.21% active | Escherichia coli growth, OD600, 23 h; active compounds read low | OD600 absorbance (no concentration beside the values);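 active = OD600 absorbance below the run mean of sample wells minus 3.6 SD, in any replicate, cut at about 0.56 in these data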;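 note: stock transfer was 300 nL into about 60 µL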
Ecoli rRNA inh: inhibits bacterial ribosomal RNA function over humanized ribosomes; E. coli WT GFP vs humanized-ribosome RFP mutants, fluorescence, 24 h; active compounds read low; DMSO median 0, no signal -100; GFP signal change (wild-type ribosome), % (concentration not given with the values); 350,000 tested, 1.6% active;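 active = significant combined selectivity score with lowered wild-type GFP, culture density cut under 30%, mutant RFP and density less affected; inactive = any of these conditions unmet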; note: one replicate is shown; some compounds called inactive have numbers as strong as hits
T cruzi repl: T. cruzi replication inhibition. T. cruzi beta-gal in NIH3T3, luminescence, 90 h. inhibition, % (test concentration not listed). 300,000 tested, 1.4% active;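 active = mean inhibition across valid replicates above about 55%, limit read from the data; inconclusive = mean below that limit but half or more replicates reach it; inactive = mean below it, under half of replicates reach it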;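 note: signal also drops with host cell toxicity which is not excluded here; 0% = plate median of DMSO wells and 100% = zero luminescence signal; higher percent means less beta-gal luminescence so fewer parasites; stock transfer was 50 nL into about 50 µL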
FGF22 binding: FGF22 (human) thermal shift binding | Q9HCT0 | recombinant FGF22 thermal shift, SYPRO orange fluorescence; percent of sucrose octasulfate shift, DMSO zero | calls only at 9.99 µM | 340,000 tested, 1.5% active | AID 651658;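 active = melting point raised past a set limit in the mean and every replicate; inconclusive = no clear call; three in four hits are not shown here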
Target sequence (Q9HCT0 whole entry, looked up): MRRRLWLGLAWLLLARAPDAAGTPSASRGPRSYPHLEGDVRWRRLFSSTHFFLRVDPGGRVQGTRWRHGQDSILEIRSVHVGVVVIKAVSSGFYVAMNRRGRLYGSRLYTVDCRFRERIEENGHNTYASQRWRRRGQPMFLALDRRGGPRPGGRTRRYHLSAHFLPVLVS
Beta cell apopt: blocks beta cell apoptosis; INS-1E cytokine-induced death, ATP luminescence, 48 h; percent of positive-control rescue, neutral wells zero; protection from apoptosis, % (concentration not given with the values); 300,000 tested, 0.8% active; AID 435005;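 active = all replicates at 75% or more, or half of them and the mean; inconclusive = half reach 75% but not the mean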;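 note: 0% = cytokine-treated negative control wells and 100% = positive control rescue; higher means more ATP so stronger rescue from cytokine killing; wells of about 40 µL received 100 nL stock; the first replicate is given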
UCH37 DUB inh: blocks the human deubiquitinase UCH37; inhibition, % (no concentration beside the values); 330,000 tested, 0.33% active; Q9Y5K5; AID 588478; purified proteasome/UCH37, Ub-AMC cleavage fluorescence;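 active = mean of two replicates above 20%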;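 note: 0% = compound-free wells with enzyme and 100% = wells lacking proteasome; stock transfer was 100 nL into about 20 µL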
Target sequence (Q9Y5K5 whole entry, looked up): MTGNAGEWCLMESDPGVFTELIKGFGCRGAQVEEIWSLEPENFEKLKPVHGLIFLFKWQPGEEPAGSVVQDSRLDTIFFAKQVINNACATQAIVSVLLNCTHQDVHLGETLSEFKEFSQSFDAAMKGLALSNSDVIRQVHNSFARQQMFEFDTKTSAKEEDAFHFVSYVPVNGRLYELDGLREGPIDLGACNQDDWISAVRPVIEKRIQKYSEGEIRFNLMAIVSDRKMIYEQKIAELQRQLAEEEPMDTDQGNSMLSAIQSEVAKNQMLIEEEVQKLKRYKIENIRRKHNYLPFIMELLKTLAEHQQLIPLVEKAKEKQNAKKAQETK
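Assay system: Proteasome-bound UCH37. Buffer or medium: pH 7.4 Tris-HCl (50 mM) with ovalbumin, ATP-MgCl2, DTT. Incubation: 30 min preincubation with enzyme, 25 min cleavage at room temperature. Measured by: fluorescence, ex 355 nm, em 460 nm. Read-out basis: percent inhibition. Control set: wells without proteasome as full block, compound-free enzyme plus substrate as uninhibited.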
Ecoli rRNA inh OD600: second read-out of Ecoli rRNA inh, no call of its own (marks repeat the call); OD600 change, %; measured here: OD600 growth;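 optical density of the mix in the first replicate; 0 = DMSO median and -100 = no signal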
Ecoli rRNA inh RFP: recorded beside Ecoli rRNA inh, whose call it bears; RFP signal change, %; measured here: RFP humanized mutant strains;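 first replicate; 0 = DMSO median and -100 = no signal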
Numbers without * were called inactive; i = inactive; ? = inconclusive; . = no result given; & = joins results of further samples.

SMILES	AF4-AF9 inh	Bfl-1 A1 inh	Ecoli growth	Ecoli rRNA inh	Ecoli rRNA inh OD600	Ecoli rRNA inh RFP	T cruzi repl	FGF22 binding	Beta cell apopt	UCH37 DUB inh
Cc1cc(C(=O)COC(=O)c2ccc(CO)cc2)c(C)n1CC1COc2ccccc2O1 (centres undefined)	.	-0.2	0.71	.	.	.	8	.	-4	1.8
CCc1cc(CNC(=O)CC2C(=O)NCCN2CC2CCCCC2)on1 (centres undefined)	3.8	0.3	0.69	9	-3	-1.0	2	i	0	-1.5
O=C(CSc1ncccc1C(=O)O)NC1CCCCCCC1	-42	0.5	0.7	11	2	-1.6	2	i	3	0.9
CCN(CC)S(=O)(=O)c1ccc(NCc2ccccn2)nc1	-4.9	-0.2	0.62	4	7	-0.5	5	i	6	0.5
O=C1NC(=O)C(=C2CCCCCC2)S1	-6.1	-0.5	0.68	-14	-4	8.3	-7	i	17	-7.5
CCn1c(CC(=O)Nc2ccccc2)nnc1SCC(=O)Nc1nnc(C)s1	-1.2	0.4	0.66	5	18	0.1	2	i	0	2.4
COc1cccc(-n2nnnc2SCC(=O)NCc2ccco2)c1	.	-0.7	0.75	.	.	.	-12	.	-5	0.8
COc1cccc(N2C(=O)C3CCCN3C2c2ccc(F)cc2)c1 (centres undefined)	.	0.6	0.73	.	.	.	-15	.	4	-0.3
CCOC(=O)C1CCCN(c2ncnc3c2cnn3-c2ccc(Cl)cc2)C1 (centres undefined)	.	-1.0	0.72	.	.	.	-1	.	2	-0.6
CN(C)c1ccc(-c2noc(C3CCN(S(=O)(=O)c4cccc(C(=O)O)c4)CC3)n2)cc1	5.8	-0.6	0.66	-16	-12	-7.0	-7	i	.	0.6
CCOC(=O)c1c(N2C(=O)CC(Sc3ccccc3C(=O)O)C2=O)sc(C)c1C (centres undefined)	.	0.6	0.7	13	4	0.6	-17	i	-1	1.7
O=C(OCc1ccc([N+](=O)[O-])cc1)C1CCN(S(=O)(=O)c2ccccc2)CC1	.	-0.4	0.68	.	.	.	8	.	-7	2.9
CCc1nc(C)cn1S(=O)(=O)c1cc(Br)ccc1OC	.	-0.6	0.66	.	.	.	2	.	-4	2.6
NC(=O)CC(NC(=O)Cc1ccc(Br)cc1)c1ccc(NC2CC3CCC2C3)c([N+](=O)[O-])c1 (centres undefined)	8.0	0.1	0.68	-4	7	-6.6	20	i	26	0.1
CCc1sc(N(C(=O)Cc2ccccc2)c2ccccc2)nc1-c1ccccc1	.	0.2	0.7	.	.	.	14	.	2	-0.1
O=C(O)CC1(CC(=O)N2CCN(CCO)CC2)CCCC1	0.2	-0.8	0.64	25	16	1.7	-14	i	1	-0.7
Cc1nn(CCc2n[nH]c(=S)n2C2CCCCC2)c(C)c1Br	.	0.2	0.67	.	.	.	1	.	-8	1.9
O=S(=O)(CCSc1nc2ccccc2s1)c1nc2ccccc2s1	.	-0.3	0.72	.	.	.	29	.	10	3.2
Cc1cc(NC(=O)C(C)SCC(=O)Nc2ccccc2OC(F)F)no1 (centres undefined)	1.1	0.2	0.65	3	5	-0.4	-11	i	-4	-0.5
Cc1ccc(C(=O)OCC(=O)NCCc2ccccc2)cc1S(=O)(=O)N1CCOCC1	5.5	0.0	0.67	-1	6	-1.6	-7	i	-8	1.1
COc1ccc(OC)c2c(N)c(C#N)c(C(F)(F)C(F)(F)F)nc12	.	0.5	0.77	.	.	.	0	.	1	-37
CCC(=O)Oc1oc(-c2ccccc2)nc1C=Nc1ccccc1OC	.	-1.0	0.7	.	.	.	6	.	-6	1.2
CCC(=O)N1CCN=C1SCc1ccccc1Cl	-2.1	0.4	0.73	12	8	1.8	1	i	-11	7.7
COC(=O)c1sccc1-n1cccc1C(=O)N1CCOCC1	.	1.2	0.76	.	.	.	-19	.	-5	2.2
Cc1nn(C)cc1-c1cc(C(=O)O)c2ccccc2n1	0.0	0.0	0.68	24	19	3.9	-4	i	-2	-225
Next section:
SMILES	AF4-AF9 inh	Bfl-1 A1 inh	Ecoli growth	Ecoli rRNA inh	Ecoli rRNA inh OD600	Ecoli rRNA inh RFP	T cruzi repl	FGF22 binding	Beta cell apopt	UCH37 DUB inh
Cc1cc(C)c2c(N)c(S(=O)c3ccc(C(C)(C)C)cc3)sc2n1 (centres undefined)	.	1.6	0.71	.	.	.	21	.	-1	-11
COc1ccc(Nc2nc(N3CCN(S(=O)(=O)N(C)C)CC3)nc3ccccc23)cc1	-7.0	0.3	0.68	-34	-31	-2.0	30	i	.	-17
c1ccc(OCCn2cnc3ccccc32)cc1	.	-0.4	0.66	-2	-6	1.1	8	.	-6	3.0
Cc1ccc(C(=O)N2CCN(Cc3ccccc3)CC2)cc1S(=O)(=O)N1CCOCC1	0.3	.	0.7	3	5	-1.6	.	i	.	2.3
COc1cccc(C2C(C(=O)c3cccs3)=C(O)C(=O)N2CCN(C)C)c1OC (centres undefined)	.	-0.6	0.7	.	.	.	-7	.	-5	4.8
CCOc1cc(/C=N/NC(=O)CSc2nncn2C)ccc1OCc1ccccc1	-5.1	-0.2	.	-15	-21	1.7	-2	i	-3	.
CC(C)C(=O)Nc1ccc(C(=O)NNC(=O)c2cccs2)cc1	.	0.0	0.66	.	.	.	-2	.	-1	4.5
Nc1nnc(COc2ccc(Br)cc2Br)s1	.	-0.8	0.7	-15	-11	0.8	0	.	-2	4.8
COc1ccc(C2=NOC(C(=O)Nc3ccc(C(C)=O)cc3)C2)cc1OC (centres undefined)	.	-0.8	0.74	.	.	.	38	.	1	2.0
Fc1ccc(CN2CCSCC2)cc1Br	.	0.0	0.61	.	.	.	-7	.	-11	2.6
COc1cc2oc(=O)cc(-c3ccc(-c4ccc(CO)cc4)cc3)c2c(OC)c1OC	7.5	.	0.7	1	8	0.0	.	i	.	-2.9
Clc1ccc(CNCCC2=CCCCC2)cc1	-20	0.0	0.66	17	8	-4.3	33	i	5	1.7
OC(CN1CCN(Cc2ccccc2)CC1)c1ccccc1 (centres undefined)	-0.7	-0.2	0.67	11	4	-0.9	38	i	1	1.2
O=C(OCc1ccccc1)c1cccnc1Cl	-0.7	-1.6	0.67	3	10	-3.0	-4	i	-8	2.5
Cc1ccc(C2C(C(=O)O)c3ccccc3C(=O)N2C)o1 (centres undefined)	.	0.1	0.66	.	.	.	-14	.	-1	2.2
Cc1nc(CNS(=O)(=O)c2ccc3c(c2)CCCC3)cs1	-0.6	-0.2	0.71	-14	-24	0.4	1	i	-3	2.8
COC(=O)c1ccc(NC(=O)CCN2CCN(Cc3ccccc3)CC2)cc1	.	0.2	0.6	.	.	.	65*	.	-8	0.6
CCOC(=O)c1sc(NC(=O)CSc2nc3c(c(=O)n2-c2ccc(C)cc2)SCC3)c(C(=O)OCC)c1C	-15	-0.5	0.75	3	9	-3.4	12	i	-2	5.6
NNC(=O)c1nc(Cl)c(Cl)c(N)c1Cl	2.0	0.0	0.67	-53	-80	-28	-3	i	1	0.9
c1ccc(-c2noc(-c3cccnc3)n2)nc1	.	-6.4	0.69	.	.	.	-8	.	15	4.7
Cc1ccccc1SCC(=O)OCC(=O)N1CC(=O)Nc2ccccc21	4.9	-0.2	0.69	-10	-2	0.4	.	i	9	2.2
COc1cccc(CNn2cnnc2)c1O	-0.6	-0.2	0.74	5	14	-1.9	-4	i	-2	2.7
COc1ccc(C(=O)N(c2ccc(OC)cc2)S(=O)(=O)c2cccs2)cc1	-2.6	0.3	0.72	.	.	.	7	i	3	-2.2
NS(=O)(=O)c1ccc(CCNC(=O)COC(=O)/C=C/c2ccc(OC(F)F)cc2)cc1	-1.5	.	0.67	-1	0	-0.3	.	i	.	1.3
N#Cc1ccc(/C=C/C(=O)c2ccccc2)cc1	6.2	-0.5	0.66	1	10	0.4	1	i	7	3.2
Later entries.
SMILES	AF4-AF9 inh	Bfl-1 A1 inh	Ecoli growth	Ecoli rRNA inh	Ecoli rRNA inh OD600	Ecoli rRNA inh RFP	T cruzi repl	FGF22 binding	Beta cell apopt	UCH37 DUB inh
COC(=O)c1ccc(C(=O)Nc2ccc3nc(-c4cccnc4)[nH]c3c2)cc1	.	-0.1	0.68	.	.	.	-1	.	.	3.6
Cc1cccc(-c2nc(CSCC(=O)NCc3cccs3)c(C)o2)c1	.	0.0	0.68	.	.	.	15	.	-10	3.0
Cc1csc(=O)n1CC(=O)OCC(=O)NCc1ccc(F)cc1	-0.8	-0.5	0.66	10	0	3.0	-5	i	-4	-0.1
CCO[C@@H]1OC(C(=O)N2CCOCC2)=C[C@H](c2ccc(Br)cc2)[C@H]1CCCO	-1.1&-0.6	-1.6	.	-5	-1	-2.4	-2	i	-3	2.5
CCCNc1c(NC(C)=O)c(=O)oc2ccccc12	-1.1	-0.1	0.64	12	12	-0.7	-15	i	-1	1.2
O=S(=O)(c1cccs1)n1nnc2ccccc21	.	0.2	0.74	3	11	-1.7	-18	.	0	-3.2
COCCN(C(=O)C(C)C)c1nnc(-c2ccc(C)cc2)s1	.	0.1	0.68	.	.	.	26	.	-5	1.7
CN(C)c1ccc(/C=C/C(=O)c2ccc3c(c2)OCCO3)cc1[N+](=O)[O-]	2.1	-3.1	0.67	-25	-38	-7.5	7	i	-5	2.0
CCOC(=O)c1c(C)c(C(=O)N2CCN(c3ccc(F)cc3)CC2)c(C)n1C	5.3	0.2	0.72	-4	-7	4.5	-1	i	2	4.0
CC(C)(C)OC(=O)N1CCC[C@H]1C(=O)NCC1CCC(C(=O)O)CC1 (some centres undefined)	.	0.2	0.7	.	.	.	-17	.	-18	-1.5
NS(=O)(=O)c1ccc(CCNCC(=O)NC2CC2)cc1	-24	?	0.69	7	13	8.2	-1	i	-3	2.5
COc1ccc(C)cc1C(=O)CCC(=O)NC1CCCCC1	0.4	0.3	0.73	4	11	0.8	19	i	-5	-4.8
O=C(c1ccco1)N1CCN(Cc2csc(-c3ccccc3Cl)n2)CC1	0.7	-2.7	0.71	-2	-28	9.1	8	i	-2	7.2
O=C(COc1ccccc1)N1CCNC1=O	.	-0.6	0.71	.	.	.	1	.	1	3.3

Some of these compounds in order of number of heavy atoms, rising:
SMILES	AF4-AF9 inh	Bfl-1 A1 inh	Ecoli growth	Ecoli rRNA inh	Ecoli rRNA inh OD600	Ecoli rRNA inh RFP	T cruzi repl	FGF22 binding	Beta cell apopt	UCH37 DUB inh
O=C(COc1ccccc1)N1CCNC1=O	.	-0.6	0.71	.	.	.	1	.	1	3.3
COc1ccc(C)cc1C(=O)CCC(=O)NC1CCCCC1	0.4	0.3	0.73	4	11	0.8	19	i	-5	-4.8
Cc1csc(=O)n1CC(=O)OCC(=O)NCc1ccc(F)cc1	-0.8	-0.5	0.66	10	0	3.0	-5	i	-4	-0.1
CCOC(=O)c1c(C)c(C(=O)N2CCN(c3ccc(F)cc3)CC2)c(C)n1C	5.3	0.2	0.72	-4	-7	4.5	-1	i	2	4.0

Assay outcomes: PubChem, several laboratories

These rows are one share of the data (hit frequency here may not be typical).
